Rango dissoc inh: inhibition of RanGTP-driven Rango-importin beta dissociation; hit rate 0.071% among 340,000; AID 540253; Potency, µM (series often up to 46.1 µM), inactives show at the top dose activity change, negative = inhibition; O95149+P62826; Biochemical FRET Rango-importin beta, RanGTP-induced dissociation; active means falling FRET ratio curve, often poorly fitted, with flat reads before Ran was added; inconclusive means other falling curves, or compound fluorescence or quenching; inactive means flat or rising ratio curve;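 also: potency is read from the fitted curve at half-maximal effect; % of control where 0% means no effect; nearly all actives have a fitted effect of over 45% in size; -100% = wells without RanGTP and RCC1; the record marks most hits as doubtful in a second field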
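FRET read at 45 min, room temperature: inhibitors block the CFP/YFP signal rise when RanGTP (0.6 uM Ran, 2 mM GTP, 0.2 uM RCC1) frees Rango (0.1 uM) from importin beta (0.25 uM). Pre-read after 5 min compound exposure flags interference.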
miR-21 reporter: raises the signal of a miR-21 reporter; HeLa miR-21 FLuc reporter, luciferase, 48 h; Potency, µM (highest dose often 38.3 µM), for inactives: at the highest dose reporter change, positive = more light; 340,000 tested, under 10 active; active = well fitted rising curve with a large enough effect; inconclusive = small, poorly fitted or top-dose-only effect; inactive = no such curve, though single readings can be large or run the other way;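 also: % of control where 0% means no effect; miR-21 action dims this reporter so a rising signal means less miR-21 action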
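Luminescence from a firefly luciferase reporter carrying a miR-21 binding site downstream, stably expressed under a CMV promoter in HeLa cells that make miR-21 endogenously, reports miRNA modulation after 48 h compound exposure up to approximately 40uM final.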
GLA inh pH 4.5: inhibitors of human alpha-galactosidase A at pH 4.5. purified enzyme, 4-MU-alpha-Gal fluorescence, pH 4.5. activity change, negative = inhibition, % at 105 µM. 230,000 tested, under 10 active. P06280; inconclusive = small, poorly fitted or top-dose-only inhibition, or a rising curve; inactive = flat fitted curve, though single readings scatter; no compound was filed as active;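 also: 0% = full activity with enzyme and -100% = basal without enzyme; dose as in the result columns while the protocol names 77 µM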
Rango-impB inh: inhibitors of Rango-importin beta complex formation; Q14974; Rango CFP/YFP FRET sensor + importin beta, 45 min; Potency, µM (series often up to 92.2 µM), for inactives: top-dose inhibition of complex formation; hit rate 0.031% among 340,000; AID 540263; active = rising FRET ratio curve, often small or poorly fitted; inconclusive = mostly compound fluorescence or quenching in the first reads; inactive = flat curves in all reads;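 also: potency is read from the fitted curve at half-maximal effect; 0% = DMSO wells and 100% = buffer wells lacking importin beta; nearly all actives have a fitted effect of over 15% in size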
Target sequence (Q14974 whole entry, looked up): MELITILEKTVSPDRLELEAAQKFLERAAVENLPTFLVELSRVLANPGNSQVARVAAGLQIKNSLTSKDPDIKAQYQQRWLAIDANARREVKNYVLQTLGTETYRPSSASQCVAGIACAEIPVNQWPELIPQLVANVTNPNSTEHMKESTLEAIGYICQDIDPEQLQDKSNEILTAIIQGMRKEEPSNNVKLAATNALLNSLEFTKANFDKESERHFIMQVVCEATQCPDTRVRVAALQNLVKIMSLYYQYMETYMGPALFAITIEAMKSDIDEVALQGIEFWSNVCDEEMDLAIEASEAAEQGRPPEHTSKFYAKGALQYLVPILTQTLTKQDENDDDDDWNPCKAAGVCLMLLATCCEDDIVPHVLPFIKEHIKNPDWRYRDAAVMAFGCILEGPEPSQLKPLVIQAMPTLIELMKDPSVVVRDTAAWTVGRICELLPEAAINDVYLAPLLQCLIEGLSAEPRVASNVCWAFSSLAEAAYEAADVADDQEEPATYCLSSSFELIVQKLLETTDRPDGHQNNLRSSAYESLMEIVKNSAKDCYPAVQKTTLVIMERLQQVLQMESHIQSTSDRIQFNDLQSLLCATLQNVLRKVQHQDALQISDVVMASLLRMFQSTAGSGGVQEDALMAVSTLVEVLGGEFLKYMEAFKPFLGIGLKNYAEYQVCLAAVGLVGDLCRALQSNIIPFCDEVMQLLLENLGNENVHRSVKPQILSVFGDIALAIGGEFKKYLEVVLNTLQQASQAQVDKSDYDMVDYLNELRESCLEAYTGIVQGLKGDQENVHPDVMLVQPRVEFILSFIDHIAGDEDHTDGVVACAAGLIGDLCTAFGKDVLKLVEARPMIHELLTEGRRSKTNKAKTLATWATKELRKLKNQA
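Inhibition scored from the CFP 486 nm/YFP 530 nm FRET ratio 45 min after adding 0.125 microM importin beta to 50 nM Rango biosensor preincubated 5 min with compound (room temperature, PBS with DTT, Tween-20, BSA). No-importin wells as positive control.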
Active calls of the source: *; ? = inconclusive; . = not tested or not shown; & = joins results of further samples; [ ] = dose if it differs, or a comment.

No.	compound	Rango dissoc inh	miR-21 reporter	GLA inh pH 4.5	Rango-impB inh
1	C#CCn1c(=O)c2c(ncn2C)n(C)c1=O	2%	.	-3	1.4%
2	NC(=O)CCC(NC(=O)c1ccc(Cl)cc1)C(=O)NCCc1ccc2c(c1)OCCO2 (stereo not drawn)	-5%	.	.	-0.3%
3	COc1ccc(CN(C)S(=O)(=O)c2nnc(NC(=O)c3cccc(C)c3)s2)cc1OC	-6%	-6%	.	4.5%
4	CC(NC(=O)COC(=O)CCc1nc2ccccc2c(=O)[nH]1)c1ccccc1 (stereo not drawn)	-14%	2%	-2	0.4%
5	CC(C)C(=O)N1CCN(c2ccccc2NC(=O)c2ccc3c(c2)OCCO3)CC1	-2%	.	.	-0.1%
6	CCn1c2ccccc2c2cc(NC(=O)CSc3nnc(-c4ccc(OC)cc4)n3N)ccc21	1%	0%	7	0.8%
7	O=C(CCc1nnc2ccc(N3CCC4(CC3)OCCO4)nn12)NCc1ccccc1Cl	-15%	-5%	.	3.7%
8	COCc1c(C(=O)NC2CCCCC2)sc2cccc(F)c12	34%	.	.	-0.2%
9	Cc1cc(N2CCCC2)n2nc(C)c(-c3ccccc3)c2n1	.	-7%	-5	.
10	C=CCn1c(COc2ccccc2C)nnc1SCC(=O)O	-9%	2%	-4	-1.0%
11	On1c(-c2ccc(Cl)cc2Cl)nc2ncccc21	6%	-24%	.	?
12	Cc1cccc(Nc2nnc(SCC(O)=C(C#N)c3nc4ccccc4[nH]3)s2)c1	?	.	.	?
13	CCC1(C)CC(C(CC(=O)O)c2ccc(C)cc2)CCO1 (stereo not drawn)	4%	-9%	0	-3.9%
14	COc1ccccc1N1CCN(CC(O)c2c(C)[nH]c3ccccc23)CC1 (stereo not drawn)	4%	-6%	.	?
15	Cc1ccc(CNC(=O)CCC(=O)N2CC(C)Oc3ccccc32)cc1 (stereo not drawn)	7%	-4%	.	5.1%

3 entries out of the list above, sorted by the number in Rango-impB inh, smallest number first.
No.	compound	Rango dissoc inh	miR-21 reporter	GLA inh pH 4.5	Rango-impB inh
13	CCC1(C)CC(C(CC(=O)O)c2ccc(C)cc2)CCO1 (stereo not drawn)	4%	-9%	0	-3.9%
8	COCc1c(C(=O)NC2CCCCC2)sc2cccc(F)c12	34%	.	.	-0.2%
1	C#CCn1c(=O)c2c(ncn2C)n(C)c1=O	2%	.	-3	1.4%

Next section:
No.	compound	Rango dissoc inh	miR-21 reporter	GLA inh pH 4.5	Rango-impB inh
16	CC[n+]1c(/C=C2\C=C(C)CC(C)(C)C2)sc2ccccc21	?	6%	3	?
17	Cc1ccc(S(=O)(=O)N2CCN(C(=O)N3CCCC3)CC2)cc1	7%	-4%	.	0.2%
18	CCn1c(SCC(=O)N/N=C/c2ccc(C)o2)nnc1-c1ccc(C(C)(C)C)cc1	-5%	10%	-1	2.8%
19	Cc1ccc(OCc2ccc(C(=O)N3CCCC3)o2)c([N+](=O)[O-])c1	7%	-26%	.	0.2%
20	CN(CC(=O)Nc1cccc(F)c1)C(=O)c1cccc(N2C(=O)CCC2=O)c1	0%	.	.	0.4%
21	c1csc(-c2nn[nH]n2)c1	-8%	-9%	-8	2.1%
22	COc1ccccc1NS(=O)(=O)c1cc(N)ccc1N1CCCC1	3%	.	.	2.9%
23	CCc1cc2cc3c(cc2nc1SCC(=O)N1CCN(C(=O)c2ccco2)CC1)OCO3	11%	0%	8	0.5%
24	O=[N+]([O-])c1ccc(S(=O)(=O)Nc2cccc(-c3ccc(N4CCOCC4)nn3)c2)cc1	-5%	.	.	-1.5%
25	COc1cc(NS(=O)(=O)c2cn(C)cn2)cc(OC)c1	-8%	2%	.	0.1%
26	CCCNC(=O)OCC12CC3CC(CC(C3)C1)C2	-2%	-10%	-6	-0.8%
27	COC(=O)c1nnn(-c2nonc2N)c1CSc1ccc(Cl)cc1	25%	-1%	1	1.3%
28	c1ccc(C(c2ccccc2)N2CCN(Cc3nnnn3C3CCCC3)CC2)cc1	1%	4%	-6	0.3%
29	O=C(NCc1ccco1)c1nnc(Cc2ccc(F)cc2)o1	0%	-4%	-10	2.0%
30	CCc1nnc(NS(=O)(=O)c2ccc(N/C=C/C(=O)c3ccc(C)cc3)cc2)s1	?	-49%	-6	?

More entries
No.	compound	Rango dissoc inh	miR-21 reporter	GLA inh pH 4.5	Rango-impB inh
31	CN(CC(=O)Nc1ccc(Cl)c(Cl)c1)C(=O)CC1OC(=O)c2ccccc21 (stereo not drawn)	6%	.	.	2.4%
32	Cc1cccc(CCNC(=O)C2CCN(S(=O)(=O)c3cccc4cccnc34)CC2)c1	1%	-3%	.	0.2%
33	COc1ccccc1CNC(=O)c1ccc2nc(N3CCOCC3)sc2c1	17%	0%	.	-0.6%
34	CCN(C(=O)COC(=O)c1cccc(NS(=O)(=O)c2ccc(F)c(F)c2)c1)C1CCS(=O)(=O)C1 (stereo not drawn)	.	-2%	-1	.
35	O=C(COC(=O)c1cc([N+](=O)[O-])ccc1Cl)NC1CCCC1	5%	0%	.	1.9%
36	CCC(=O)N(CCc1ccc(OC)c(OC)c1)Cc1cc2ccc(C)cc2n2nnnc12	-4%	2%	-12	1.0%
37	Cc1cc2cc3c(C)cc(=O)oc3c(C)c2o1	-9%	-9%	-2&1	6.6%
38	COc1ccc(NC(=O)CSc2n[nH]c(C(C)C)n2)c([N+](=O)[O-])c1	4%	6%	-17	1.9%
39	Cc1n[nH]c(C)c1Sc1ccccc1N=Cc1cc(Cl)cc([N+](=O)[O-])c1O	-15%	-4%	-4	1.8%
40	COC(=O)c1ccc(C(=O)OC)c(NC(=O)CSCc2ccccc2Br)c1	5%	-3%	0	-1.1%
41	Cn1nc(C(=O)Nc2nc3ccccc3[nH]2)c2ccccc2c1=O	12%	-34%	-11	-6.0%
42	COCCN1Cc2cccc(C(=O)Nc3ccccc3OC)c2C1=O	0%	-3%	-13	0.3%
43	COc1ccc(CN2CCC(Cc3ccccc3)CC2)cc1OC	0%	2%	.	0.2%
44	CCC1CCCCN1Cc1nc2c(c(=O)n(C)c(=O)n2C)n1CCCc1ccccc1 (stereo not drawn)	-5%	-7%	-9	-4.0%
45	O=C1N=c2ccc([N+](=O)[O-])cc2=C1c1sc(=O)[nH]c1O	16%	0%	.	4.0%

Next entries.
No.	compound	Rango dissoc inh	miR-21 reporter	GLA inh pH 4.5	Rango-impB inh
46	O=C(O)CC/C(=N\Nc1ccc(S(=O)(=O)N2CCCC2)cc1[N+](=O)[O-])c1cccs1	0%	11%	-9	0.1%
47	O=C(NC1CCCC1)c1ccccc1OCc1ccccc1	-17%	2%	-4	13%
48	Cc1noc(C)c1COC(=O)C1CCN(S(=O)(=O)c2ccc(F)cc2)CC1	8%	.	.	-0.1%
49	O=C(O)C1C2C=CC(C2)C1C(=O)N1CCOCC1 (stereo not drawn)	-6%	-7%	-2	0.7%
50	COc1ccc(-n2sc3ccc(F)cc3c2=O)cc1	0%	.	.	-0.8%
51	Cc1ccc(S(=O)(=O)N(Cc2cccc(C)c2)C(=O)N2CCN(C)CC2)cc1	-7%	.	.	1.0%
52	COC(=O)c1ccc(/C=N/Nc2nc(C)c(C)s2)cc1	?	-54%	-15	?
53	Cc1cc2sc3ccc(C#CC4(O)CCCCC4)cc3c(=O)c2cc1C	-1%	.	.	?
54	Cc1ccccc1OCC(=O)N/N=C/c1ccc(N(C)C)cc1	-7%	6%	6	-2.1%
55	O=C(O)COc1ccccc1/C=N/NC(=O)CSc1nc2ccccc2n1Cc1ccccc1	0%	-13%	1	-0.4%
56	CC(Sc1nnc(-c2ccco2)n1N)C(=O)NCc1ccc2c(c1)OCO2 (stereo not drawn)	-3%	.	.	-3.9%
57	COc1cc(CNC2CCCCC2OC)cc(OC)c1 (stereo not drawn)	-4%	-3%	-9	1.0%
58	CCCCCCC(=O)N(O)C1CC(=O)N(Cc2ccccc2)C1=O (stereo not drawn)	11%	2%	3	-1.1%
59	COc1ccccc1-n1cnnc1SCc1csc(-c2ccccc2)n1	1%	-2%	10	-7.3%
60	COc1ccc(-c2nc(SCC(=O)NCc3ccco3)c(-c3ccccc3)[nH]2)cc1OC	14%	17%	-12	0.0%

Next records:
No.	compound	Rango dissoc inh	miR-21 reporter	GLA inh pH 4.5	Rango-impB inh
61	Cc1ccc(CSC2=Nc3ccccc3C3=NC(CCC(=O)NCc4ccco4)C(=O)N23)cc1 (stereo not drawn)	-7%	-29%	-4	1.0%
62	CN(C)S(=O)(=O)c1ccc(C(=O)NC2CCCc3ccccc32)cc1 (stereo not drawn)	-1%	2%	-4	-1.8%
63	CCN(CC(=O)Nc1ccc(NC(C)=O)cc1)CC(=O)Nc1ccccc1C(=O)c1ccccc1	-12%	1%	3	0.6%
64	O=c1c2cc(-c3ccccc3)sc2nc2n1N=C(c1ccccc1)CS2	-12%	-27%	10	-5.8%
65	O=S(=O)(c1cccc2nonc12)N1CCCCCC1	26%	0%	5	0.1%
66	OCCNc1nc2nonc2nc1NCCO	-10%	5%	3	2.4%
67	Cc1ccc(C)c(-c2nnc(NC(=O)CCS(=O)(=O)c3ccc(F)cc3)o2)c1	7%	.	.	-1.7%
68	O=C(NNC(=O)c1ccc2nc[nH]c2c1)c1ccccc1	-4%	.	.	-4.3%
69	O=C(O)C1C2C=CC(C2)C1C(=O)N1CCN(C/C=C/c2ccccc2)CC1 (stereo not drawn)	6%	-4%	2	6.6%
70	C[C@H](/C=C/[C@@]1(O)[C@H](C)C[C@H](O)CC1(C)C)O[C@@H]1O[C@H](CO)[C@@H](O)[C@H](O)[C@H]1O	1%	.	.	2.0%
71	COCCCNC(=O)COc1ccc(S(=O)(=O)NCc2ccccc2)cc1Cl	8%	-9%	-19	-6.1%
72	CC(C)(C)[C@H]1C=C(C(=O)N2CCN(Cc3ccc4c(c3)OCO4)CC2)O[C@@H](OCCCCO)C1	-8%	-8%	-1	-1.6%
73	CCc1nc(SCC(=O)NCCc2ccc(OC)c(OC)c2)c2c(=O)n(C)c(=O)n(C)c2n1	-6%	-3%	7	-3.1%
74	CCC(CC)NC(=O)COC(=O)c1ccc2c(c1)C(=O)N(Cc1ccco1)C2=O	12%	10%	.	0.3%
75	Cc1cc(C)c2nc(-c3ccccn3)cc(C(=O)NCCc3ccc(S(N)(=O)=O)cc3)c2c1	0%	-2%	2	1.2%

(continued)
No.	compound	Rango dissoc inh	miR-21 reporter	GLA inh pH 4.5	Rango-impB inh
76	COc1ccc2c(c1)[nH]c1c(N3CCN(Cc4ccc5c(c4)OCO5)CC3)ncnc12	6%	?	-3	-0.2%
77	COc1cc(C2Nc3ccccc3C(=O)N2c2ccccc2)ccc1O (stereo not drawn)	-7%	-28%[0.307 µM]	8	1.9%
78	Cn1cnnc1SC1CCCCC1NS(=O)(=O)c1ccc(Cl)cc1 (stereo not drawn)	17%	-4%	-1	-0.4%
79	CC1=C(C(=O)OCc2ccc([N+](=O)[O-])cc2)N2C(=O)C(NC(=O)Cc3ccccc3)C2SC1 (stereo not drawn)	0%	2%	.	0.4%
80	CCOC(=O)CSc1nc(N)nc(C)c1Br	25%	1%	1	-1.9%
81	O=C(CCc1nnc2ccc(NCc3ccccc3)nn12)NC1CCCC1	13%	-1%	.	0.1%
82	COc1ccc(NC(=S)NCCCN2CCOCC2)cc1	-9%	0%	-18	-1.5%
83	COc1ccc(OC)c(NC(=O)C2=C(C)NC(=O)NC2c2cccs2)c1 (stereo not drawn)	6%	0%	-4	-1.2%
84	O=C(Nc1ccccc1)/C(=C\c1ccc(F)cc1)NC(=O)c1ccco1	7%	-16%	.	0.8%
85	Cn1nc(C(=O)NCC(c2cccs2)N2CCOCC2)c2ccccc2c1=O (stereo not drawn)	-11%	.	.	-0.3%
86	COC1CCN(C(=O)c2cc(COc3ccc(-n4cncn4)cc3)on2)CC1	12%	-3%	.	0.3%

Among those listed so far, 2 contain a tert-butyl group.
No.	compound	Rango dissoc inh	miR-21 reporter	GLA inh pH 4.5	Rango-impB inh
18	CCn1c(SCC(=O)N/N=C/c2ccc(C)o2)nnc1-c1ccc(C(C)(C)C)cc1	-5%	10%	-1	2.8%
72	CC(C)(C)[C@H]1C=C(C(=O)N2CCN(Cc3ccc4c(c3)OCO4)CC2)O[C@@H](OCCCCO)C1	-8%	-8%	-1	-1.6%

Source: PubChem BioAssay

Not all compounds are listed (hit frequency here may not be typical).
